Mtb hypoxia inh: PubChem AID 1159583 | fluorescence inhibition, % (no concentration beside the values) | M. tuberculosis hypoxia-regulated fluorescent reporter, fluorescence | 0.1% of 300,000 active;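 active = 35 to 45% if threefold the growth effect, above 45% if 1.5-fold the growth effect; inactive = the rest, general growth blockers included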;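 note: wells of about 50 µL received 100 nL stock; 0% = vehicle wells and 100% = reference inhibitor wells; whole bacteria with a GFP reporter of the hypoxia response; strong numbers were not always called active; many hits fall short of the cut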
Sa RN4220 lethal: growth inhibition of S. aureus RN4220, primary screen, OD600. 16 h. inhibition, % (test concentration not listed). 0.33% of 330,000 active;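 active = z-score of -3 or lower and OD600 up to 0.18 on both plates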;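 note: plate controls were untreated cells for no effect and reference antibiotic for full effect; stock transfer was 100 nL into about 80 µL; one replicate is shown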
ugtP null kill: growth inhibition of ugtP-null S. aureus, primary screen, RN4220 ugtP deletion, OD600; growth inhibition, % (test concentration not listed); 16 h; some inactives read as strong as hits; 0.54% of 330,000 active;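 active = z-score under -3 and OD600 up to 0.15 on both plates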;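 note: plate controls were untreated wells for no effect and antibiotic for full effect; wells of about 80 µL received 100 nL stock; the first replicate is given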
PrP UTR inh: inhibition of PrP 5' UTR reporter expression; cell-based PrP 5' UTR mRNA reporter, plate reader; 0.35% of 340,000 active; inhibition, % (concentration not given with the values);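 active = every replicate at 50% or more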;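 note: 0 = median of the neutral control wells; tested in H4 reporter cells; numbers are from one replicate; inactives centre near -14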
Bead autofluor: flagged as autofluorescent in microsphere protease counterscreen; compound autofluorescence counterscreen, microsphere flow cytometry; hits give high values; fluorescence intensity (concentration not given with the values); 3.1% of 360,000 active; AID 624483;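 active = at least 3 SD above the mean of all compounds, about 16000 in these data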;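 note: 100 nL of 1 mM stock went into each well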
BJeLR viability: MLPCN primary cell-based screen for lethality selective to Ras in HRASV12 cells; BJeLR (HRASV12) viability, CellTiter-Glo ATP luminescence, 48 h; reference of the scale not given here; inhibition, % (concentration not given with the values); 0.17% of 300,000 active;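 active = replicate mean above 50%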;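 note: 50 nL library stock added to about 25 µL; numbers are from one replicate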
Mtb hypoxia inh growth: further read-out of Mtb hypoxia inh, marked with its call; growth inhibition, %; measured here: M. tuberculosis growth (absorbance);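 0% = vehicle and 100% = reference antibiotic; read after six days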
The depositor's hits bear a star; / = not tested or not shown. This is a random part of the collection (roughly 3.9% active in at least one column).

SMILES	Mtb hypoxia inh	Mtb hypoxia inh growth	Sa RN4220 lethal	ugtP null kill	PrP UTR inh	Bead autofluor	BJeLR viability
COc1ccc(C(C)=O)cc1CN1C(=O)NC(c2ccccc2)(c2ccccc2)C1=O	-17.4	-13.8	-0.8	1.8	-10.8	2965	-8.1
CN1CCN(S(=O)(=O)c2ccc(Oc3ccc(F)cc3Br)nc2)CC1	15.2	10.7	0.9	-3.6	-12.6	3460	-8.9
O=C(N1CCN(S(=O)(=O)c2ccc(Cl)cc2)CC1)n1ccnc1	1.5	14.1	3.3	-0.6	-22.6	3697	/
FC(F)(F)c1cccc(Cn2nnnc2-c2cc(Cl)cc(Cl)c2)c1	17.5	3.2	10.2	-18.2	3.2	16997*	5.3
O=C(CCNC(=O)c1ccc([N+](=O)[O-])cc1)Nc1ccccc1N1CCCCC1	8.6	14.7	2.9	9.1	-17.0	5384	-6.0
CCCC(=O)N/C(N)=N/c1nc2ccccc2o1	2.0	12.4	3.4	1.1	-79.0	4415	-3.3
O=C(C1CCCN(C2CC(=O)N(c3ccc(F)cc3)C2=O)C1)N1CCCC1 (centres undefined)	7.6	-6.9	1.9	0.2	-36.1	5542	-2.6
COC(=O)c1ccc(NC(CC(C)C)C(=O)OC)c([N+](=O)[O-])c1 (centres undefined)	9.1	2.4	3.4	22.9	-26.1	2021	6.1
CC(C)(C)OC(=O)N1CCC(c2c(C(=O)NC3CC3)cnn2-c2ccc(Cl)cc2)CC1	7.2	-1.3	7.1	0.2	-5.4	5179	-5.4
O=C(Nc1nncs1)c1cccc(S(=O)(=O)N2CCCCC2)c1	-3.3	3.0	2.8	7.7	7.5	6189	0.5
CC(=O)NCCc1ccc(C(=O)Cn2cnc3ccccc3c2=O)cc1	21.7	12.6	0.8	11.3	-14.7	3846	-3.6
CCCOP(=O)(c1ccc(N(C)C)cc1)C(O)c1ccncc1 (centres undefined)	3.3	4.6	4.5	-2.7	-31.9	19418*	/
CC(C)=CCc1c(O)ccc2c1OC(c1ccc(O)c(O)c1)CC2=O (centres undefined)	/	/	0.1	2.0	23.4	6073	4.0
Cc1ccc(Nc2nnc(-c3ccc(N4CCOCC4)c([N+](=O)[O-])c3)c3ccccc23)cc1	0.6	5.5	2.5	-5.3	-9.1	2372	-2.6
O=C(COc1ccc(-c2nnco2)cc1)Nc1cc([N+](=O)[O-])ccc1F	2.3	7.5	-5.1	6.5	-3.3	4014	/
C=CCn1c(N2CCCC2)nc2c1c(=O)n(C)c(=O)n2C	4.0	2.7	-1.5	8.1	-18.0	3562	1.0
CCOC(=O)CSc1nnc(NCC(=O)OC(C)C)c(=O)[nH]1	/	/	-4.8	2.1	-11.7	4665	2.5
COC(=O)C1=NN(C(=O)c2cccc(Cl)c2)C(O)(C(C)(C)C)C1 (centres undefined)	5.0	4.5	-0.1	-0.3	-6.8	2333	/
Cc1nc2sc(C(N)=O)c(N)c2c(C)c1CC(=O)c1ccccc1	10.9	7.2	6.8	8.2	18.8	4432	6.6
Cn1nccc1C(=O)N/N=C/c1ccccc1[N+](=O)[O-]	/	/	/	/	-62.9	6168	3.5
O=C(NC1CCC(=O)N(CCC(Sc2ccc(Br)cc2)c2ccccc2)CC1)OCc1ccccc1 (centres undefined)	6.5	9.1	-3.1	9.9	/	/	/
O=C(NCCCN1CCCC1=O)Nc1ccccc1Cl	0.9	1.0	5.6	11.0	-11.4	4576	-7.4
CCOC(=O)Cc1csc(NS(=O)(=O)c2ccc(NC(C)=O)cc2)n1	-7.9	11.9	-1.7	0.0	-2.2	3987	-6.3
COc1ccc(NC(=O)Cn2c(=O)n(-c3ccccc3)c(=O)c3oc4ccccc4c32)c(OC)c1	/	/	/	/	-6.5	10466	12.3
Cc1nc2cc(C(=O)N3CCN(C)CC3)ccc2n1C	-0.3	8.5	2.6	-0.3	-21.6	3452	6.0

A few values from the entries so far.
`CC(C)=CCc1c(O)ccc2c1OC(c1ccc(O)c(O)c1)CC2=O` (centres undefined) | ugtP null kill: 2.0
`COC(=O)C1=NN(C(=O)c2cccc(Cl)c2)C(O)(C(C)(C)C)C1` (centres undefined) | Mtb hypoxia inh: 5.0

Four structures out of the list, ordered by count of non-hydrogen atoms, lowest first.
SMILES	Mtb hypoxia inh	Mtb hypoxia inh growth	Sa RN4220 lethal	ugtP null kill	PrP UTR inh	Bead autofluor	BJeLR viability
CCOC(=O)CSc1nnc(NCC(=O)OC(C)C)c(=O)[nH]1	/	/	-4.8	2.1	-11.7	4665	2.5
O=C(Nc1nncs1)c1cccc(S(=O)(=O)N2CCCCC2)c1	-3.3	3.0	2.8	7.7	7.5	6189	0.5
O=C(COc1ccc(-c2nnco2)cc1)Nc1cc([N+](=O)[O-])ccc1F	2.3	7.5	-5.1	6.5	-3.3	4014	/
O=C(CCNC(=O)c1ccc([N+](=O)[O-])cc1)Nc1ccccc1N1CCCCC1	8.6	14.7	2.9	9.1	-17.0	5384	-6.0

Carrying on.
SMILES	Mtb hypoxia inh	Mtb hypoxia inh growth	Sa RN4220 lethal	ugtP null kill	PrP UTR inh	Bead autofluor	BJeLR viability
O=C(COC(=O)c1cccc(Br)c1)NCCNC(=O)COC(=O)c1cccc(Br)c1	-1.4	5.4	3.5	-4.1	-26.3	5544	2.9
C/C(=N\Nc1ccc(C(=O)c2c(C)cc3ccccn23)cc1[N+](=O)[O-])c1ccc(O)cc1	/	/	/	/	-3.3	5341	-2.3
CCOC(=O)NC(=O)C(C#N)=Cc1ccccc1	-6.2	1.6	-1.2	-5.7	/	/	/
COc1ccc(CCNCC(=O)Nc2ccc(C)c(S(=O)(=O)N(C)C)c2)cc1	-3.5	-4.1	3.6	-3.5	9.2	3592	-0.4
N#Cc1ccsc1NC(=O)CN1CCCCC1	6.1	1.7	-5.7	-1.9	4.7	4402	1.4
CCN(CC)CCN(Cc1cc2ccc(C)c(C)c2[nH]c1=O)C(=S)NCc1ccco1	7.7	6.3	4.0	0.1	-19.5	10347	8.4
Cc1nc([N+](=O)[O-])cn1-c1nc2ccccn2c1[N+](=O)[O-]	/	/	/	/	-1.1	2937	-2.8
COc1ccc(CNC(=O)C(=O)NCC2OCCCN2S(=O)(=O)c2cccs2)cc1 (centres undefined)	15.9	-5.3	2.0	1.8	-8.7	5741	3.4
Cc1nn(C)c(C)c1NS(=O)(=O)c1ccc(Cl)s1	5.1	-1.2	6.5	1.1	4.0	4073	/
Cc1cc(NC(=O)CSc2nc3ccsc3c(=O)n2Cc2ccccn2)n[nH]1	0.8	1.4	4.9	13.5	-25.4	16535*	2.7
CCN1C(=O)c2cccc3c(S(=O)(=O)Nc4ccc(OC)cc4OC)ccc1c23	4.7	5.6	5.4	1.6	-7.8	7744	6.0
COc1cc(-c2noc(C)c2C#Cc2ccsc2)cc(OC)c1OC	1.7	-2.9	5.3	2.6	11.3	3016	24.6
COc1ccc(CNC(=O)CCC(=O)Nc2nnc(C(F)(F)F)s2)cc1	6.8	2.0	3.8	9.9	-6.1	4368	2.8
O=C(C1CCN(S(=O)(=O)N2CCC3(CC2)OCCO3)CC1)N1CCCCC1	-2.4	5.2	4.2	0.5	-27.1	10821	4.6
O=c1c2ccccc2nc(SCc2nc(-c3ccccc3)no2)n1-c1ccc(F)cc1	7.5	0.0	-0.1	2.7	-7.8	5825	/
CC(OC(=O)Cc1c[nH]c2ccccc12)C(=O)NC1CCCCC1C (centres undefined)	-7.2	4.2	4.5	-9.5	7.0	5565	/
CCC(=O)Nc1ccc(C(C)=NNC(=O)c2c(Br)c(C)nn2C)cc1	4.1	5.2	4.2	6.2	/	/	/
CCn1cc(C2Nc3ccccc3C(=O)N2O)c(C)n1 (centres undefined)	-1.8	2.4	13.3	2.7	-26.4	2923	6.0
COc1ccccc1-c1nc(SCC(=O)N(C)c2ccccc2)c2c(=O)n(C)c(=O)n(C)c2n1	2.0	3.4	-11.3	3.7	-22.3	4130	-5.1
CCCCNC(=S)N/N=C/c1ccc(C)s1	/	/	/	/	-8.8	24604*	-4.8
Cc1noc(C)c1NC(=O)N(C)CC1Oc2c(NS(=O)(=O)c3cccs3)cccc2C(=O)N(C(C)CO)CC1C (centres undefined)	12.4	9.6	4.2	0.4	/	/	/
COCCCn1c(SCC(=O)NCc2ccco2)nc2sc3c(c2c1=O)CCC3	6.7	6.2	11.8	-10.1	-14.1	19443*	-5.0
CCOc1nc(C)ccc1-c1noc(-c2ccccn2)n1	2.1	8.0	-11.8	-4.0	-24.5	2944	0.0
Fc1ccc(NC(=S)Nc2ccccc2N2CCOCC2)cc1Cl	-1.2	9.8	6.4	2.2	-11.6	6008	-0.6
CCOC(=O)c1sc2ncn(C(CC)C(=O)OCC)c(=O)c2c1C (centres undefined)	/	/	7.0	9.6	-8.0	2509	6.9
(continued)
SMILES	Mtb hypoxia inh	Mtb hypoxia inh growth	Sa RN4220 lethal	ugtP null kill	PrP UTR inh	Bead autofluor	BJeLR viability
CC(=O)c1ccc(NC(=O)CCCN2C(=O)COc3ccc(C)cc32)cc1	8.6	2.9	0.8	3.9	-10.3	6486	9.0
Cc1ccnc(SCc2cc(=O)c(OC(=O)c3ccc(Br)o3)co2)n1	-3.5	1.5	-1.6	-5.9	-10.0	1968	10.3
CC(=O)Nc1nc(-c2ccccc2)c(-c2ccccc2)o1	-4.2	0.6	-0.4	9.0	-7.8	1958	-6.3
COc1cccc(N2CCN(CC(=O)Nc3nc4c(s3)CC(C)CC4)CC2)c1 (centres undefined)	3.3	-4.2	-2.1	5.2	/	11803	15.1
CC1=NN(c2nc3ccccc3[nH]2)C(=O)C1Cc1ccccc1 (centres undefined)	11.3	0.5	26.8	-2.5	/	6203	13.7
CN(C)CCNC(=O)COc1ccc(Cl)cc1Cl	2.6	2.2	4.8	10.1	-12.5	2439	9.9
COC(=O)CN(c1ccccc1)S(=O)(=O)c1cc(Br)ccc1OC	10.9	0.5	7.5	8.3	-16.1	3864	/
COc1ccc(NC2=C3CCCC=C3N(c3ccc(OC)cc3)C2=O)cc1	5.4	-0.9	-5.5	3.3	-23.4	2526	-4.4
Cc1ccc(C(=O)N2N=C(c3ccccc3)CC2(O)C(F)(F)F)o1 (centres undefined)	-1.5	11.0	6.2	4.3	-3.2	2128	4.2
CSC(=CC(=O)c1ccc(F)cc1)SC	-3.8	2.5	4.6	4.8	-36.1	5232	-4.6
COc1cc(C2NC(=S)NC3=C2C(=O)CCC3)ccc1O (centres undefined)	-0.5	-0.8	1.2	7.9	-23.9	3405	-8.3
O=C(CCc1ccccc1)NCCS(=O)(=O)N1CCN(c2ccccc2)CC1	5.1	0.0	0.7	4.1	-13.7	5476	6.8
CCOC(=O)c1ccc2c(c1)n(CC)c(C)[n+]2CC	11.2	-0.5	3.3	4.9	-38.3	4302	7.2
COc1ccc(S(=O)(=O)Nc2ccccc2C(=O)N2CCCC2)cc1OC	0.5	2.9	4.1	7.7	5.8	3479	-2.9
O=C(CN1C(=O)NC2(CCc3ccccc32)C1=O)Nc1c(Cl)cccc1Cl (centres undefined)	3.0	8.6	-0.9	-6.5	-1.7	3686	/
CCc1ccc(S(=O)(=O)NCCc2cn3ccsc3n2)s1	0.3	-3.7	-14.3	-3.4	-0.1	4483	-3.7
O=C(Cn1nc(C(F)(F)F)c2c1CCC2)NCc1ccc(F)cc1	8.8	10.4	0.8	-10.7	-18.4	5528	-3.1
CC1CCCC(NC(=O)CSc2n[nH]c(N)n2)C1C (centres undefined)	18.5	14.4	5.2	3.2	-14.6	3427	/
O=C(NCc1nnc(SCC(=O)N2CCN(c3ccccc3)CC2)o1)c1ccc(F)cc1	0.3	13.3	1.8	-4.9	-16.6	5536	12.0
COc1cccc(/C=C2\SC(=S)N(CC3CCCO3)C2=O)c1 (centres undefined)	-2.1	-11.7	-2.0	20.2	-13.3	1996	-9.5
Cc1ccc(Nc2nc(N)nc(CN3CCC(C)CC3)n2)c(C)c1	3.4	6.9	2.9	5.9	-16.7	3395	-3.8
CCCCC1CCC(C(=O)N(C)CC(=O)Nc2cccc(OC)c2)CC1 (centres undefined)	2.0	-1.3	1.8	6.8	-5.6	5253	/
N/C(Cc1nc(-c2ccc(Cl)cc2)cs1)=N/O	/	/	/	/	-37.0	6224	-4.1
COC(=O)CNC(=O)C(C)NC(=O)OCc1ccccc1 (centres undefined)	-1.5	-4.4	-3.3	-3.2	-15.3	4133	-1.7
COc1ccc(C)c2sc(N(CCN(C)C)C(=O)c3ccc4ccccc4c3)nc12	3.2	6.6	-7.6	-19.3	-0.3	5806	-8.0

Screening results: PubChem, several laboratories
